Source: PubChem
miR-21 FLuc: raises the signal of a miR-21 reporter. Potency, µM (doses to about 38.3 µM), for inactives: at the top dose reporter change, positive = more light. AID 2288. 340,000 tested, under 10 active. HeLa miR-21 FLuc reporter, luciferase, 48 h; active = well fitted rising curve with a large enough effect; inconclusive = small, poorly fitted or top-dose-only effect; inactive = no such curve, though single readings can be large or run the other way;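 note: % of control where 0% means no effect; miR-21 action dims this reporter so a rising signal means less miR-21 action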
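HeLa cells endogenously expressing miR-21, stably carrying CMV-driven firefly luciferase with a downstream miR-21 binding site, 2000 cells/well. Titrations up to approximately 40 uM, 48 hours; luciferase luminescence read.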
Rango-impB inh: Rango-importin beta binding inhibition. Q14974. Rango CFP/YFP FRET sensor + importin beta, 45 min. hit rate 0.031% among 340,000. Potency, µM (highest dose often 92.2 µM), inactives show at the highest dose inhibition of complex formation; active = rising FRET ratio curve, often small or poorly fitted; inconclusive = mostly compound fluorescence or quenching in the first reads; inactive = flat curves in all reads;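 note: potency is the fitted concentration of half-maximal effect; 0% = DMSO wells and 100% = buffer wells lacking importin beta; nearly all actives have a fitted effect of over 15% in size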
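FRET biosensor Rango (snurportin 1 IBB between N-terminal EYFP and C-terminal Cerulean), 50 nM in PBS/1 mM DTT/0.02% Tween-20/0.1% BSA, preincubated 5 min RT with compound; 0.125 microM importin beta added, 45 min RT, CFP/YFP FRET ratio read.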
GLA inh pH 4.5: blocks human alpha-galactosidase A at pH 4.5; activity change, negative = inhibition, % at 105 µM; 230,000 tested, under 10 active; P06280; purified enzyme, 4-MU-alpha-Gal fluorescence, pH 4.5; inconclusive = small, poorly fitted or top-dose-only inhibition, or a rising curve; inactive = flat fitted curve, though single readings scatter; no compound was filed as active;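 note: 0% = full activity with enzyme and -100% = basal without enzyme; dose as in the result columns while the protocol names 77 µM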
Target sequence (P06280 whole entry, looked up): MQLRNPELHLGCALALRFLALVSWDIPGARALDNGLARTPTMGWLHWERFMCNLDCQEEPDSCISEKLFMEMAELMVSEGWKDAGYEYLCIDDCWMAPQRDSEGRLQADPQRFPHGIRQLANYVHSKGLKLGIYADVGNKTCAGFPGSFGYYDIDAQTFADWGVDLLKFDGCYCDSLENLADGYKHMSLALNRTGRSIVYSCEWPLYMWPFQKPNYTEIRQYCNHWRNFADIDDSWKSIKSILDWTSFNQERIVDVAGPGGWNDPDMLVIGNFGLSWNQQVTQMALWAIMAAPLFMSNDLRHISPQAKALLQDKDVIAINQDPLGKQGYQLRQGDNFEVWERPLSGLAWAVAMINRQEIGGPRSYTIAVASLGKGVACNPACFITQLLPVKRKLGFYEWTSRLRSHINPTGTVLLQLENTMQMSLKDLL
Rango release inh: inhibitors of RanGTP-induced Rango-importin beta complex dissociation; Potency, µM (doses to about 46.1 µM), without a hit: at the top dose activity change, negative = inhibition; AID 540253; hit rate 0.071% among 340,000; O95149+P62826; Biochemical FRET Rango-importin beta, RanGTP-induced dissociation; active means falling FRET ratio curve, often poorly fitted, with flat reads before Ran was added; inconclusive means other falling curves, or compound fluorescence or quenching; inactive means flat or rising ratio curve;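 note: potency is the fitted concentration of half-maximal effect; % of control where 0% means no effect; nearly all actives have a fitted effect of over 45% in size; -100% = wells without RanGTP and RCC1; the record marks most hits as doubtful in a second field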
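Compounds preincubate 5 min with complex of recombinant Rango and importin beta in PBS with 1 mM DTT. Ran (0.6 uM) loaded with 2 mM GTP plus 0.2 uM RCC1 starts dissociation; FRET is recorded 45 min later.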
Starred values were filed as active, the others as inactive; ? = inconclusive; / = not tested or not shown; [ ] = remark or other dose.

SMILES	miR-21 FLuc	Rango-impB inh	GLA inh pH 4.5	Rango release inh
COCCNC(=O)c1ccccc1NC(=O)CCSc1ccccc1	-9%	-3.7%	0	-8%
Cc1ccc(S(=O)(=O)N(CC(=O)NCc2cccnc2)c2ccc(F)cc2)cc1	0%	3.9%	/	7%
Cc1ccc(-n2c(=O)cc(NCc3cccnc3)[nH]c2=O)cc1	-4%	?	-1	1%
FC(F)(F)c1cccc(-n2cc(-c3ccccc3)[nH]c2=S)c1	-1%	-3.3%	/	2%
COc1cc(C)nc(Oc2ccc(=O)[nH]n2)n1	-33%	-0.8%	2	9%
Cc1cc(C)cc(NC(=O)N2CCN(C/C=C/c3ccccc3)CC2)c1	1%	4.1%	-5	9%
O=C(NCc1nc2ccccc2[nH]1)C1=C[C@H](c2ccc(C(F)(F)F)cc2)C[C@H](OCCCCO)O1	/	7.6%	/	-4%
O=C(c1ccc2ccccc2c1)C1CCCN(S(=O)(=O)c2cccnc2)C1 (stereo not given)	12%	0.8%	-1	-4%
CCOC(=O)c1c(C)n(-c2ccc(C)cc2)c2ccc(OCC(O)CNCCCO)cc12 (stereo not given)	23%	-1.3%	-8	-2%
O=C(OCC(=O)c1ccc(S(=O)(=O)N2CCCC2)cc1)C1=COCCO1	-1%	-4.4%	5	-11%
Cc1cccc(-c2nn(-c3ccccc3)cc2C(=O)NCC(c2cccs2)N2CCOCC2)c1 (stereo not given)	/	-3.0%	/	-3%
O=C(CCC(=O)c1ccccc1)NCc1ccccc1	3%	6.1%	0	2%
FC(F)Oc1ccccc1NC(=S)NCc1ccco1	-9%	-4.4%	-5	16%
COc1ccc(NC(=O)CCCCCN2C(=O)[C@@H]3Cc4ccccc4CN3C2=O)cc1Cl	8%	1.1%	/	-8%
COC(=O)NCC(c1ccc2c(c1)OCO2)N1CCN(c2ccc(OC)cc2)CC1 (stereo not given)	1%	8.0%	/	0%
O=C(C[n+]1cn(C(F)F)c2ccccc21)c1ccc(Br)cc1	-44%	-3.4%	13	21%
COc1ccc(Cl)cc1CSc1ncn[nH]1	1%	2.4%	1	15%
O=C(Nc1ccc(COc2ccccc2)cc1)c1cccc([N+](=O)[O-])c1	-23%	-0.2%	0	5%
CC(C)c1nc(SCC(=O)N2c3ccccc3CC2C)c2ccccc2n1 (stereo not given)	16%	0.7%	-19	12%
O=S(=O)(Nc1ccc(N2CCOCC2)nn1)c1ccccc1	-1%	0.0%	-11	-3%
CCC(C)NC(=O)CSc1n[nH]c(=O)n1CCc1ccccc1 (stereo not given)	-4%	-0.1%	/	15%
Cc1ccc(CCC(=O)Nc2ccc(N(C)C)cc2)o1	-21%	0.9%	/	18%
COC(=O)c1ccccc1NC(=S)NC(NC(=O)c1ccccc1[N+](=O)[O-])C(Cl)(Cl)Cl (stereo not given)	-9%	-1.2%	0	-23%
C/C(Cc1ccccc1)=N\NC(=O)C1CCCCC1	-24%	-3.7%	2	0%
CCCc1nc(N2CCN(S(=O)(=O)c3ccc(Cl)cc3)CC2)c2c(C)c(C)sc2n1	0%	-1.3%	-4	2%
O=C(CCCN1C(=O)/C(=C/c2ccccc2)SC1=S)Nc1ccccc1O	9%	1.6%	6	-6%
Cn1ncc(Cl)c(Oc2ccc(C(C)(C)C)cc2)c1=O	-12%	1.2%	3	4%
CCOC(=O)CCCNC(=O)COc1ccccc1C#N	0%	?	19	24%
O=C(CN1C(=O)NC2(CCc3ccccc32)C1=O)Nc1cccc(F)c1 (stereo not given)	/	6.7%	/	5%
COc1ccc(OCCCC(=O)Nc2ccc(N3CCOCC3)cc2)cc1	3%	?	-6	4%
O=C(OCc1ccc2c(c1)OCO2)c1ccc(S(=O)(=O)N2CCCC2)cc1	-6%	0.6%	-3	1%
COc1ccc2oc(=O)c(/C(C)=N/NC(=O)c3ccncc3)cc2c1	1%	?	-1	?
N#Cc1c(-c2ccccc2)cc(-c2ccco2)c(C#N)c1N	-3%	/	5	/
COCC(C)NCc1cccc([N+](=O)[O-])c1 (stereo not given)	0%	-6.7%	-20	5%
O=C(Nc1cccc(C(=O)N2CCN(c3cccc(Cl)c3)CC2)c1)c1ccccc1	19%	-0.4%	-16	-3%
O=C(Nc1nnc(C2=COCCO2)o1)c1ccc(S(=O)(=O)N2CCCC2)cc1	-4%	-2.9%	8	-16%
O=C(Nc1cnccn1)c1cccs1	-7%	4.4%	0	1%
Cc1ccc(F)cc1NC(=O)CN1CCN(Cc2ccccc2)CC1	-8%	-0.1%	/	-13%
O=c1c(Br)ccc(Br)cc1Br	/	-5.3%	/	-24%
O=C1CC(c2ccccc2)CCc2sccc2N1 (stereo not given)	-6%	0.2%	6	-1%
O=C(c1ccc([N+](=O)[O-])cc1Cl)N1CCN(c2ccccn2)CC1	5%	-0.5%	0	-8%
COc1cccc(N2C(=O)CN(Cc3ccccc3)C2=S)c1	-9%	5.1%	/	0%
Cc1ccc(C)c(NC2=C(Cl)C(=O)OC2OC(=O)c2ccco2)c1 (stereo not given)	8%	-0.5%	-3	-9%
CCCc1noc(-c2ccc(-c3ccccc3)cc2)n1	-56%	-0.7%	-2	0%
COc1ccc(-n2c(C)cc(C(=O)CSc3nn4c(=O)c(C(C)(C)C)nnc4s3)c2C)cc1	-2%	1.7%	-3	-3%
C#CCOc1ccc(/C=N/NC(=O)c2cccnc2)cc1OCC	-10%	-2.8%	7	-9%
O=C(CN1C(=O)NC2(CCCCC2)C1=O)Oc1ccc2c(C(F)(F)F)cc(=O)oc2c1	/	?	/	?
Cc1ncc([N+](=O)[O-])n1CC(=O)N/N=C/c1ccccc1F	-3%	1.9%	-2	-4%
CC1CN(c2nc3ccccc3cc2-c2ccccc2)CC(C)O1 (stereo not given)	-2%	-0.8%	-7	-9%
Cc1cc(C)nc(N2CCC(C(=O)NCC3CCCCC3)CC2)n1	-5%	0.8%	1	-14%
O=C(Cn1nnc2ccccc21)OCC(=O)c1ccc(F)cc1	-1%	-0.9%	-24	25%
C/C=C\C=C/C(=O)Nc1cccc(C2=NOC3(C2)C[C@@H](C(N)=O)N(C(=O)CCCCC)C3)c1 (stereo not given in full)	3%	?	5	-2%
COc1ccc(CN2C(=NC(=O)c3ccccc3)SC3CS(=O)(=O)CC32)cc1 (stereo not given)	0%	-3.2%	/	6%
CCn1c(Cc2ccccc2)nnc1SCC(=O)Nc1nc2ccccc2s1	1%	-1.2%	-1	-4%
O=C(CO/N=C/c1ccccc1OC(F)F)NC1CCCCC1	-14%	1.9%	-2	7%
Cc1ccc(O)c(NC(=O)c2ccc3c(c2)C(=O)N(Cc2cccnc2)C3=O)c1	-4%	0.7%	/	8%
Cc1nc(SCCC(=O)O)c2ccccc2n1	-9%	2.5%	4	-6%
CC(Cc1cccs1)NC(=O)c1cccs1 (stereo not given)	-47%	-0.1%	1	12%
Cc1ccc(C)c(NC(=O)C2C(c3ccccc3)C2(Cl)Cl)c1 (stereo not given)	10%	6.0%	-11	-14%
CCOC(=O)c1c(S(=O)(=O)NCC(=O)Nc2ccccc2OC)c(C)n(C)c1C	0%	-1.1%	/	9%

Part of the list above in order of heavy-atom count, largest number first.
SMILES	miR-21 FLuc	Rango-impB inh	GLA inh pH 4.5	Rango release inh
Cc1cc(C)nc(N2CCC(C(=O)NCC3CCCCC3)CC2)n1	-5%	0.8%	1	-14%
CCCc1noc(-c2ccc(-c3ccccc3)cc2)n1	-56%	-0.7%	-2	0%
Cc1nc(SCCC(=O)O)c2ccccc2n1	-9%	2.5%	4	-6%

(further entries)
SMILES	miR-21 FLuc	Rango-impB inh	GLA inh pH 4.5	Rango release inh
COc1ccc(C)cc1-n1c(C)cc(C=O)c1C	-2%	-3.7%	4	0%
O=C(NCc1ccc(Cl)cc1)C1CCCN(C(=O)c2ccc(Cl)cc2)C1 (stereo not given)	/	-0.6%	/	?
NC(=O)C1CCN(c2nc(-c3ccc(Br)cc3)cs2)CC1	-42%	0.6%	1	1%
NC(=O)c1sc2nnc(-c3ccccc3)c(-c3ccccc3)c2c1N	-5%	?	0	?
Cc1ccc(C)c(NC(=O)CN(C)C(=O)CN2C(=O)C3CCCCC3C2=O)c1 (stereo not given)	/	-0.2%	/	1%
COc1ccc(CCC(=O)NC(C)C)cc1	1%	-1.2%	-12	5%
COc1ccc(NC(=O)Cn2c3ccccc3c3nc4n(c(=O)c32)CCS4)cc1OC	-6%	1.4%	/	-9%
CCn1cc(CNC(=O)C2C3CCC(C3)C2C(=O)O)cn1 (stereo not given)	0%	4.0%	-13	-20%
Cc1nc2ccccn2c1C(=O)N/N=C/c1ccccc1	-3%	0.3%	/	-17%
CC(=O)Nc1cccc(C(=O)NC(C)c2ccc(S(N)(=O)=O)cc2)c1 (stereo not given)	2%	0.1%	5	-7%
O=C(NCCc1ccccc1)c1ccccc1NC(=O)C1CCCCC1C(=O)O (stereo not given)	-26%	/	4	/
O=C(O)c1cc(N2C(=O)C3C4C=CC(C4)C3C2=O)ccc1N1CCOCC1 (stereo not given)	1%	2.5%	1	16%
Cc1ccc(C)c(-n2c(N)c(C(N)=O)sc2=S)c1	7%	-0.8%	3	0%
CC(C)(C)n1nnnc1C(c1cccs1)N(Cc1cccnc1)Cc1ccccc1Cl (stereo not given)	22%	-2.4%	-28	-1%
CCC(=O)c1c[nH]c(C(=O)NCCCN2CCOCC2)c1	-7%	-2.0%	10	8%
CCOc1ccccc1N1CC(C(=O)Nc2ccc(S(=O)(=O)N3CCCCC3)cc2)CC1=O (stereo not given)	/	0.9%	/	-1%
COc1cccc(N2[C@@H](CC(=O)O)c3ccccc3S2(=O)=O)c1	/	3.4%	/	15%
CC1=C(CC(=O)O)c2cc(F)ccc2C1=Cc1ccc(S(C)(=O)=O)cc1	/	8.8%	/	2%
Cc1ccc(NC(=O)CN2C(=O)N/C(=C/c3ccc(C)s3)C2=O)cc1	-20%	?	-2	-5%
Cc1cccn2c(=O)c3cc(C(=O)N4CCCC(C)C4)sc3nc12 (stereo not given)	-19%	-0.5%	/	-1%

Record cards, as listed above. Order of values: miR-21 FLuc | Rango-impB inh | GLA inh pH 4.5 | Rango release inh
CC1=C(CC(=O)O)c2cc(F)ccc2C1=Cc1ccc(S(C)(=O)=O)cc1 in the list: / | 8.8% | / | 2%
CCC(=O)c1c[nH]c(C(=O)NCCCN2CCOCC2)c1 in the list: -7% | -2.0% | 10 | 8%
CC(C)(C)n1nnnc1C(c1cccs1)N(Cc1cccnc1)Cc1ccccc1Cl (stereo not given) in the list: 22% | -2.4% | -28 | -1%
Cc1ccc(C)c(-n2c(N)c(C(N)=O)sc2=S)c1 in the list: 7% | -0.8% | 3 | 0%

The list goes on:
SMILES	miR-21 FLuc	Rango-impB inh	GLA inh pH 4.5	Rango release inh
Cc1ccc2cc(CN(CCN3CCOCC3)Cc3nnnn3Cc3ccco3)c(=O)[nH]c2c1C	-5%	-1.3%	5	-12%
Cc1cc(C(=O)NC2CCC(C)CC2)c(C)o1 (stereo not given)	-46%	0.1%	/	1%
CCOC(=O)N1CCN(S(=O)(=O)c2ccc(C(=O)N(CCCN(C)C)c3nc4ccc(Cl)cc4s3)cc2)CC1	-2%	4.3%	/	-13%
COc1ccccc1C(=O)NNC(=O)CCCN1C(=O)/C(=C/c2cccs2)SC1=S	-6%	5.2%	9	-19%
O=C1CSC(c2ccccc2[N+](=O)[O-])N1c1cccc(F)c1 (stereo not given)	0%	-2.3%	-7[21.1 µM]	4%
C1CC1Cc1noc(CN2CCN(C3C4CC5CC(C4)CC3C5)CC2)n1 (stereo not given)	-3%	-2.3%	-1	4%
Cc1ccc2cc(NC(=O)Cc3ccccc3)ccc2n1	-61%	-1.8%	1	2%
O=C1CCN(CC2CCCCC2)C=C1C(=O)c1ccccc1	/	5.8%	/	4%
O=[N+]([O-])c1cccnc1Oc1ccc(OCc2ccccc2)cc1	-48%	2.8%	/	15%
COC(=O)c1ccc(C(=O)NC(=S)Nc2nc3c(s2)CCCC3)cc1	-57%	-4.9%	0	9%
CC1(c2ccccc2)NC(=O)N(CC(=O)NCCC2=CCCCC2)C1=O (stereo not given)	0%	0.5%	-5	17%

The list is partial; count on the stated rates, not on these rows.
